# Beta cell apopt: blocks beta cell apoptosis; INS-1E cytokine-induced death, ATP luminescence, 48 h; percent of positive-control rescue, neutral wells zero; protection from apoptosis, % (test concentration not listed); hit rate 0.8% among 300,000; AID 435005;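 active means all replicates at 75% or more, or half of them and the mean; inconclusive means half reach 75% but not the mean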;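 further: 0% = cytokine-treated negative control wells and 100% = positive control rescue; higher means more ATP so stronger rescue from cytokine killing; wells of about 40 µL received 100 nL stock; the first replicate is given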
# A1 inh: inhibitors of the anti-apoptotic protein A1, read as caspase activation. MEF A1-2A-BIM cells, Caspase-Glo 3/7 luminescence, 3 h; percent of clofoctol response, vehicle zero. hit rate 0.066% among 330,000. caspase activation, % (concentration not given with the values);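 active means over half of replicate activation scores above 10%, or exactly half above 10 with the replicate mean above 10; inconclusive means replicate mean below 10 yet half the replicates above 10; inactive means over half of replicates below 10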;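 further: wells of about 30 µL received 50 nL stock; many hits fall short of the cut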
# T cruzi inh: T. cruzi replication inhibition; hit rate 1.4% among 300,000; T. cruzi beta-gal in NIH3T3, luminescence, 90 h; inhibition, % (no concentration beside the values);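 active means mean inhibition across valid replicates above about 55%, limit read from the data; inconclusive means mean below that limit but half or more replicates reach it; inactive means mean below it, under half of replicates reach it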;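 further: signal also drops with host cell toxicity which is not excluded here; 0% = plate median of DMSO wells and 100% = zero luminescence signal; higher percent means less beta-gal luminescence so fewer parasites; stock transfer was 50 nL into about 50 µL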
# Calb FLC: C. albicans growth modulation with fluconazole. C. albicans CaCi-2 (fluconazole-resistant clinical isolate) + fluconazole, Alamar Blue growth, 48 h. AID 1979. growth inhibition, % (no concentration beside the values). hit rate 0.57% among 300,000;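 active means most replicates above 75%; inconclusive means exactly half above 75%; inactive means most below 75%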;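 further: all wells also contain fluconazole at 8 µg/ml as a sub-toxic cotreatment; 0% = median of DMSO wells and 100% = median of geldanamycin control wells; wells of about 8 µL received 7.5 nL stock; the first replicate is given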
# RanGTP-Imp inh: inhibitors of RanGTP-importin-beta interaction, primary screen, biochemical, FRET, CFP-Ran, YFP-importin-beta, homogeneous; cell-free CFP-Ran/YFP-importin-beta FRET ratio; inhibition, % (concentration not given with the values); hit rate 1.1% among 300,000;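 active means most replicates above 15%; inconclusive means exactly half above 15%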;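 further: 0% = DMSO wells and 100% = Ran loaded with GDP instead of GTP; wells of about 40 µL received 100 nL stock; the first replicate is given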
# Vif TR-FRET: inhibitors of Vif binding to APOBEC3G peptide, primary screen, biochemical, TR-FRET, GST-Vif 1-94, biotin-A3G peptide, dose response retest (AID 1117319); TR-FRET GST-Vif / biotin-A3G peptide binding; higher % means a stronger effect; test concentration not given here; strong numbers were not always called active; inhibition, %; hits with a dose series show IC50 in µM; hit rate 0.57% among 260,000;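 active means above the screen mean plus three standard deviations and confirmed in dose response; inconclusive means results disagree or hit not tested in dose response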;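 further: Vif residues 1-94 fused to GST binding biotinylated APOBEC3G peptide 110-148; 0% = full assay without inhibitor and 100% = GST in place of GST-Vif; retest series ran down from 100 µM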
# LANA-H2A inh: blocks KSHV LANA binding to histone H2A/H2B | Q9QR71 | cell-free LANA-H2A/H2B peptide, fluorescence polarization | inhibition, % (test concentration not listed) | hit rate 0.6% among 320,000 | AID 2629; in the data active means inhibition mostly above about 10%, no sharp cut-off; inactive means mostly below about 6.7%;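 further: stock transfer was 7.5 nL into about 10 µL; 0% = median of vehicle wells and 100% = median of positive control wells; one replicate is shown; the record names a cut of 25% in any replicate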
# MLL AF4-AF9 inh: inhibitors of human MLL-AF4/AF9 interaction. hit rate 0.47% among 350,000. inhibition, % at 10 µM. AlphaScreen, biotin-AF4 peptide binding to FLAG-AF9;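 active means every replicate reaching a set inhibition limit, whatever the replicate mean, cut at about 25% in these data; inconclusive means mean inhibition reaches that limit but some replicates miss it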;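 further: 0% = plate neutral control median and 100% = total signal loss; the record names both 10 and 1 µM as test concentration; the first replicate is given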
# Target sequence (P42568 whole entry, looked up): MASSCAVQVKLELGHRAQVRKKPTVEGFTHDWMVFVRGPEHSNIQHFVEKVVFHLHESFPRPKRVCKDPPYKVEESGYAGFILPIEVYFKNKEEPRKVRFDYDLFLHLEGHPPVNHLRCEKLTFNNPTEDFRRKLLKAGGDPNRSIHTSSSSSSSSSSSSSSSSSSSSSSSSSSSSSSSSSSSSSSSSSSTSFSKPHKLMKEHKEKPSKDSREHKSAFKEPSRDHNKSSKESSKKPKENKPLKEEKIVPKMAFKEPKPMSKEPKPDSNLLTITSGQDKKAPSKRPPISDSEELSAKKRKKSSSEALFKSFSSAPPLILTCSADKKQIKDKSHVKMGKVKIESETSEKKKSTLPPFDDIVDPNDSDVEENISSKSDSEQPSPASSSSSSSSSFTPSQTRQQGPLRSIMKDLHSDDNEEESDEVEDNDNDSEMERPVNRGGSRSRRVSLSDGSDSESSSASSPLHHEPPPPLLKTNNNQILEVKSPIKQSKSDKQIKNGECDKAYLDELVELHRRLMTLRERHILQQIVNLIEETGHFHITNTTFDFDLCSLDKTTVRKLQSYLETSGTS
# Active calls of the source: *; ? = inconclusive; . = no result given; ! = repeats disagree.
SMILES,Beta cell apopt,A1 inh,T cruzi inh,Calb FLC,RanGTP-Imp inh,Vif TR-FRET,LANA-H2A inh,MLL AF4-AF9 inh
C=CCNC(=O)C(=O)N/N=C/c1cccc(Br)c1,1,0.6,-21,13,5.2,-4%,-3.2,-0.2
CSc1ccccc1NC(=O)Nc1cccc2ccccc12,-6,-1.4,.,-17,.,3%,-0.2,-1.4
NC(=O)c1ccccc1OCC(=O)Nc1ccc(Cl)c(Cl)c1,1,-3.5,1,14,5.0,-4%,-0.6,1.7
O=C(N/N=C/c1ccccc1)c1sccc1OCc1ccc(F)cc1,-4,0.3,0,-2,?,4%,4.2,.
O=c1c2cnn(-c3ccc(F)cc3)c2ncn1Cc1ccccc1,-2,-0.6,-5,4,2.5,-9%,0.1,.
CCCNC1CCS(=O)(=O)C1 (stereo not given),0,-0.5,5,-3,-0.9,-9%,-0.5,.
Cc1ccc(N/N=C2\COC(C)(C)CC2=O)cc1,-1,0.1,0,101*,11,.,4.8,-1.0
O=C(N/N=C/c1oc(O)c2ccccc12)c1ccccc1O,0,0.2,2,-12,-1.5,.,-8.9,-2.9
CCOC(=O)CNC(=O)CSc1nc(NCc2ccccc2)nc(N(C)C)n1,3,-0.5,3,7,2.2,-1%,0.9,.
CCCOc1ccc(N)cc1N,99*,2.3,-7,-3,-2.4,7.7µM*!,4.9,.

# Compound profiles, from the list above:
# `O=C(N/N=C/c1ccccc1)c1sccc1OCc1ccc(F)cc1` reads Beta cell apopt: -4; A1 inh: 0.3; T cruzi inh: 0; Calb FLC: -2; RanGTP-Imp inh: ?; Vif TR-FRET: 4%; LANA-H2A inh: 4.2; MLL AF4-AF9 inh: .
# `O=c1c2cnn(-c3ccc(F)cc3)c2ncn1Cc1ccccc1` reads Beta cell apopt: -2; A1 inh: -0.6; T cruzi inh: -5; Calb FLC: 4; RanGTP-Imp inh: 2.5; Vif TR-FRET: -9%; LANA-H2A inh: 0.1; MLL AF4-AF9 inh: .

# Following part:
SMILES,Beta cell apopt,A1 inh,T cruzi inh,Calb FLC,RanGTP-Imp inh,Vif TR-FRET,LANA-H2A inh,MLL AF4-AF9 inh
COc1ccc(CNC(=O)CN(C)Cc2ccc(SC)cc2)cc1,-9,-0.5,21,-37,6.9,.,7.5,-0.1
CCOC(=O)C1=C(O)C(=O)N(Cc2ccccc2)C1,0,0.6,1,1,-1.0,0%,4.2,0.7
Cc1ccccc1CNC(=O)c1ccccc1,0,-0.2,-8,-1,-2.6,11%,-3.1,.
Cc1nnc(NC(=O)Cc2ccc(OCc3c(C)noc3C)cc2)s1,8,0.2,0,-1,-2.3,7%,-4.5,.
Cc1nnc2n1N=C(c1ccccc1)CS2,0,1.9,-16,-5,-4.5,1%,-3.3,0.8
CCn1c(SCc2c(Cl)cccc2Cl)nnc1-c1nn(-c2ccccc2)ccc1=O,3,-0.6,28,10,0.1,3%,-3.0,.
Cc1cc(OC(=O)c2cccc(C(F)(F)F)c2)c([N+](=O)[O-])c(=O)[nH]1,-3,0.4,6,5,5.1,.,-4.0,-0.2
O=C(C1CCCCC1)N1CCN(C(=O)C2CCCCC2)CC1,-5,1.3,-11,15,-8.0,0%,5.4,-52
CC(/C=N/NC(=O)c1cc(-c2cccs2)[nH]n1)=C\c1ccccc1,11,-0.5,-14,38,-3.1,.,1.5,-0.3
CC(C)(C)C(=O)Cn1ncc(N2CCCC2)c(Br)c1=O,0,0.2,-7,4,-3.6,31%,9.3,.
CC(=O)Nc1ccc(-c2nn[nH]n2)cc1,-3,-0.7,-9,0,4.0,0%,1.2,-49
O=[N+]([O-])c1cc(C(F)(F)F)c(Cl)cc1N1CCN(CCO)CC1,-5,0.2,-2,7,3.5,10%,0.4,.
Cc1ccn2c(=O)nc(SCC(=O)N3CCCCCC3)nc2c1,.,0.4,0,8,?,6%,1.3,-0.2
O=C(NCc1cn2ccccc2n1)c1ccccc1,4,-0.5,-2,4,-1.1,-8%,4.1,.
O=C(c1ccc(S(=O)(=O)Nc2cccc(C(F)(F)F)c2)cc1)N1CCOCC1,1,0.4,6,-3,3.1,.,-0.6,-0.8
CCOc1cc(NC(=O)c2ccccc2C(=O)O)c(OCC)cc1NC(=O)c1ccccc1F,23,0.6,60*,6,-1.2,.,1.2,9.4
Cc1cc(C)cc(NC(=O)C(OC(=O)c2ccc(NC(=O)CC#N)cc2)c2ccccc2)c1 (stereo not given),6,0.3,-4,-4,-1.2,-2%,-2.6,-10
Cc1c(NC(=O)CSc2ccccc2F)c(=O)n(-c2ccccc2)n1C,-4,-0.2,11,-4,3.7,.,-2.1,-0.7
O=C(CCN1CCOCC1)NNC(=O)Nc1cccc([N+](=O)[O-])c1,-5,0.4,3,-4,0.8,.,0.1,-1.6
CC(C)NC(=S)Nc1cccc2cnccc12,-1,?,-8,34,-3.3,5%,0.3,-10
O=C(NC1=NCCS1)c1cccc2ccccc12,0,-1.2,-13,4,3.8,-5%,1.1,0.4
CN1/C(=C\C(=O)Nc2ccc(Cl)cc2)C(C)(C)c2ccccc21,-2,0.4,14,-25,2.7,.,-0.2,6.4
CC1Cn2c(COc3ccccc3)nnc2S1 (stereo not given),-6,0.3,-6,-4,-2.2,18%,-0.1,0.7
CC(=O)NC(CC(C)C)C(=O)NC(Cc1ccccc1)C(N)=O (stereo not given),.,.,-25,-3,-1.6,-5%,-18,.
COCCn1c(=NC(=O)CSCC(=O)N2CCOCC2)sc2ccccc21,.,1.8,-5,-3,1.7,.,3.3,0.3
COc1cccc(CNC(=O)[C@H](CC(C)C)NC(=O)N2CCn3c2nc2ccccc23)c1,-2,-0.4,5,1,-1.7,0%,-2.5,-3.2
CCc1ccc(C(=O)OCC(=O)N2CCCCCC2)cc1,-2,0.1,.,.,.,3%,-1.2,-3.3
Cc1cc(C)n(-c2ccc(C(=O)Nc3ccc(S(=O)(=O)NCc4ccco4)cc3)cc2)n1,36,-0.3,-1,-3,-1.2,5%,-2.7,.
Cc1ccccc1NC(=O)CN1C(=O)CSc2ccc(S(=O)(=O)N3CCCCC3)cc21,4,-0.9,6,8,1.7,.,-1.5,2.7
CCC(=O)c1cn(CC(=O)OC)c2ccccc12,-7,-0.1,-5,-1,4.5,30%,6.7,.
COC(=O)CC1COc2ccccc2N1C(=O)c1ccc(Br)cc1 (stereo not given),-4,0.5,5,3,-2.0,16%,-0.9,-5.1
COc1ccc(C(CNC(=O)C(C)Oc2ccc(Br)cc2)N2CCCCC2)cc1 (stereo not given),3,0.9,.,.,.,5%,-4.6,0.4
CC(=O)NC(CCS(C)(=O)=O)C(=O)Nc1cccc(C(C)=O)c1 (stereo not given),10,0.4,3,-8,0.6,-6%,1.6,.
CCc1nnc(NC(=O)c2nc3nc(C)cc(C)n3n2)s1,-1,0.1,16,?,6.6,-2%,2.6,.
Cc1cccc(CN2CCN(CC(=O)NCc3cccs3)C2=O)c1,-6,1.2,-8,-2,?,?,1.7,.
COc1ccccc1C(CNC(=O)CNC(=O)c1ccc(Cl)c(Cl)c1)N1CCCC1 (stereo not given),3,-0.5,.,.,.,2%,-1.5,3.7
Cc1cccc(OCCCC(=O)Nc2ccc3c(c2)OCO3)c1,2,0.1,-3,-16,-2.1,30%,-0.6,.
C/C(=N\NC(=S)Nc1ccc(C)cc1)c1cc2ccccc2o1,12,-0.3,51,-12,?,.,1.9,2.3
COc1ccc(-c2csc(NC(=O)Nc3ccccc3)n2)cc1,2,-0.3,-5,-5,4.0,-2%,-1.2,-11
CCCCn1c(N)c(N(CC(C)C)C(=O)C2CCN(C(=O)c3ccc(Cl)cc3)CC2)c(=O)[nH]c1=O,2,0.9,-5,-2,-0.9,1%,1.9,-12
Cc1nnc(SCC(=O)Nc2cc(S(C)(=O)=O)ccc2Cl)n1Cc1ccccc1,-1,0.4,10,4,12,.,6.1,-0.2
O=C(/C=C/c1ccccc1Cl)Nc1cccc(S(=O)(=O)NC2=NCCCCC2)c1,-3,0.2,-16,9,3.4,-6%,-1.5,.
COC(=O)c1[nH]c2ccccc2c1NC(=O)CN1CC(C)OC(C)C1 (stereo not given),-5,0.0,16,-1,-2.7,25%,-3.1,.
O=C(NNc1cc(N2CCOCC2)nc(N2CCOCC2)n1)c1ccc(Cl)c(Cl)c1,-5,-0.3,-15,-1,134*,1%,2.3,6.2
CC(C)Oc1ccccc1C1CC(=O)Nc2cc3c(cc21)OCCO3 (stereo not given),19,1.3,10,26,-0.9,3%,4.8,.
CCOC(=O)/C(=N\Nc1ccccc1Cl)N(C)C1CCS(=O)(=O)C1 (stereo not given),1,0.5,-3,-38,-0.2,-4%,-0.3,1.6
CCOc1cc(-c2cc(-c3ccc(N)cc3)nc(N)c2C#N)ccc1O,0,-2.8,21,-13,48*,?,2.6,.
Cc1cccc(NC(=O)CNC(=O)N2CC(=O)Nc3ccccc32)c1C,3,1.4,5,4,0.5,.,-0.3,-6.4
COc1ccc(/C=C/C(=O)O)cc1S(=O)(=O)NCc1cccnc1,.,0.4,-4,4,3.7,30%,5.3,0.9
Oc1c(CN2CCOCC2)cc(COCc2ccccc2)c2cccnc12,98*,?,62*,83*,4.0,29%,-0.3,.
# (more compounds)
SMILES,Beta cell apopt,A1 inh,T cruzi inh,Calb FLC,RanGTP-Imp inh,Vif TR-FRET,LANA-H2A inh,MLL AF4-AF9 inh
O=C(COC(=O)c1cnccn1)NC(=O)c1ccccc1,.,0.5,-9,6,1.1,23%,7.0,-0.3
Cc1onc(-c2ccccc2Cl)c1C(=O)NCC1CCCO1 (stereo not given),-6,-0.1,-5,-2,0.0,4%,1.4,.
CCN(CC)Cc1c(C(=O)N/N=C(\C)c2ccncc2)nnn1-c1nonc1N,-3,1.2,-6,4,-4.1,-3%,-1.6,43*
COC(=O)C1=C(C)N(CCCC(=O)O)C(=O)NC1c1ccc([N+](=O)[O-])cc1 (stereo not given),-10,-0.1,3,-1,-1.9,.,-0.4,-1.9
COc1ccc(CCNC(=O)CNC(=O)Cn2cnc3sc(C)c(C)c3c2=O)cc1OC,-2,-0.4,1,3,0.4,.,5.3,.
COc1ccccc1/C=C1\SC(=S)N(NS(=O)(=O)c2ccc(C)cc2)C1=O,-4,0.0,-11,51,-0.9,-5%,-1.2,-2.6
COc1ccccc1C(=O)Nc1nc2cc3c(cc2s1)OCO3,14,-5.6,4,-6,-4.7,11%,4.2,-15
Cc1ccc(S(=O)(=O)N2CCOCC2)cc1NC(=O)COC(=O)CNC(=O)c1ccc(Cl)cc1Cl,-9,2.3,-13,-2,-0.4,.,-0.4,0.0
CCOc1nc(NCCO)nc(Nc2ccc([N+](=O)[O-])cc2)n1,-8,0.4,-24,4,4.6,.,2.3,0.6

# Two records picked at random from those above:
SMILES,Beta cell apopt,A1 inh,T cruzi inh,Calb FLC,RanGTP-Imp inh,Vif TR-FRET,LANA-H2A inh,MLL AF4-AF9 inh
O=C(COC(=O)c1cnccn1)NC(=O)c1ccccc1,.,0.5,-9,6,1.1,23%,7.0,-0.3
COC(=O)C1=C(C)N(CCCC(=O)O)C(=O)NC1c1ccc([N+](=O)[O-])cc1 (stereo not given),-10,-0.1,3,-1,-1.9,.,-0.4,-1.9

# Screens from PubChem.
